Source: PubChem BioAssay
KCNQ2 block = KCNQ2 channel blockers in CHO-K1 cells – cell-based, FluxOR thallium flux, B-score, primary screen (AID 2156) | O88943 | 20 min; hits give low values; only compounds with negative scores are shown here; some inactives read as strong as hits | B-score at 10 µM | 310,000 compounds, 1.1% hits;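 active = fluorescence ratio B-score at most minus 3 library SDs, with starting brightness B-score within 2 library SDs, cut at about -5.5 in these data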
Target sequence (O88943 whole entry, looked up): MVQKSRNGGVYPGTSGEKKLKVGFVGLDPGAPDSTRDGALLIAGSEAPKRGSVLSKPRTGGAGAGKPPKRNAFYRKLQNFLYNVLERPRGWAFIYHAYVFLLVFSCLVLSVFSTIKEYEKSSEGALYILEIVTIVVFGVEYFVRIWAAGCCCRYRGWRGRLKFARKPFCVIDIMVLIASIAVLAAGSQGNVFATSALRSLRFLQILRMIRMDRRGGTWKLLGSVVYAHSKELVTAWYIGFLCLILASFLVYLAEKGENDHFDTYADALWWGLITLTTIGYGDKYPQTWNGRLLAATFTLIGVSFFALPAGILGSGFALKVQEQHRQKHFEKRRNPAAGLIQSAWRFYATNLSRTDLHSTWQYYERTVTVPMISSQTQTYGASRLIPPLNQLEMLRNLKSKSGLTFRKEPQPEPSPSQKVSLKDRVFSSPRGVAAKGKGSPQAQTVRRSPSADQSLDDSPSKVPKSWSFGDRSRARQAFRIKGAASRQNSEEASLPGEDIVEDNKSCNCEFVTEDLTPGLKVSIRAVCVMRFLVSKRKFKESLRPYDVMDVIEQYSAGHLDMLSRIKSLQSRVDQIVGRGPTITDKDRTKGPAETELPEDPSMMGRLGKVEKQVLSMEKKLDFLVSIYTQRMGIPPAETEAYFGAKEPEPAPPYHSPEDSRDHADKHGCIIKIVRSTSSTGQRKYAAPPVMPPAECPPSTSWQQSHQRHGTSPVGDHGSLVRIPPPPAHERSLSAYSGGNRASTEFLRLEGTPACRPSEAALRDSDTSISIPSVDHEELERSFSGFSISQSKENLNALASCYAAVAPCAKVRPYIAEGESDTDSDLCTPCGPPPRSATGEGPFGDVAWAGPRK
KCNQ2 block baseline = further read-out of KCNQ2 block, marked with its call; B-score; measured here: initial fluorescence intensity artifact check;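 brightness before thallium and not channel activity; 0 = typical well and far values either way flag optical interference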
* hit, by the source's call; i = inactive. Only part of the results is shown (hit frequency here may not be typical).

KCNQ2 block baseline,KCNQ2 block,Molecule
0.67,i,COc1ccc(C(=O)Oc2c(OC)cc(C(=S)N3CCOCC3)cc2OC)cc1
-0.7,i,CCOc1ccccc1OCCC(=O)OCC(=O)Nc1c(C)cc(C)cc1C
0.67,i,Cc1oc(CSCC2CCCO2)cc1C(=O)O (stereo unspecified)
0.25,i,Cc1ccc(OCc2nnc(SCC(=O)NCc3ccccc3)n2C)cc1
-0.41,i,Cn1c(C(=O)c2ccccc2[N+](=O)[O-])nc2ccccc21
2.64,i,CCCCN(C)C(=S)Nc1ccsc1C(=O)OC
-1.15*,-6.25*,Cc1ccc(S(=O)(=O)N2c3cc(C)ccc3OCC2C(C)(C)C)cc1 (stereo unspecified)
-0.51,i,CN(C)S(=O)(=O)c1cccc(NC(=O)c2cc3ccccc3o2)c1
0.5,i,Cc1ccc(C(=O)NCC(=O)N2CCC(Cc3ccccc3)CC2)cc1
2.45,i,CCCn1nnnc1NCc1ccc(SC)cc1
1.86,i,Cc1ccc(-c2noc(CSc3nc(N)cc(N)n3)n2)cc1
-0.01,i,CCc1ccc(NC(=O)CC2C(=O)NCCN2C(=S)Nc2ccccc2)cc1 (stereo unspecified)
-0.58,i,CCC1(c2ccc(F)cc2)NC(=O)N(CC(=O)NCc2ccccc2Cl)C1=O (stereo unspecified)
2.67,i,COc1ccc2c(c1)S(=O)(=O)c1ccccc1N2
-0.01,i,COc1ccc(NC(=O)CSc2nnc(-c3ccccc3Cl)n2Cc2ccco2)c(OC)c1
1.74,i,Cc1cc(NC(=S)NC(=O)c2ccccc2)ccc1-c1cc2ccccc2oc1=O
-2.48,i,COc1cccc(C2/C(=C(/O)c3ccccc3)C(=O)C(=O)N2Cc2ccco2)c1 (stereo unspecified)
-1.17*,-6.04*,CCCN(CCC)C(=O)CC(c1ccccc1)c1cc(C)ccc1O (stereo unspecified)
-0.03,i,CCOC(=O)c1ccc2[nH]c(C)c(CCC(C)=O)c(=O)c2c1
0.79,i,O=S(=O)(c1ccc2c(c1)OCCO2)N1CCC(n2nnc3cc(F)ccc32)CC1
0.51,i,COc1ccccc1NCC(=O)Nc1cc(S(=O)(=O)N2CCOCC2)ccc1N1CCOCC1
-0.43,i,CC1(c2ccc(OC(F)F)cc2)NC(=O)N(CC(=O)Nc2cccc(S(N)(=O)=O)c2)C1=O (stereo unspecified)
1.54,i,CC1(C)CC(=O)C(C(=O)c2ccccc2)C(=O)C1
-0.53,i,O=C(CN1C(=O)c2ccccc2C1=O)Oc1ccc(F)cc1
-0.55,i,Cc1c(NC(=O)CN2C(=O)c3cccc4cccc2c34)c(=O)n(-c2ccccc2)n1C
-0.25,i,COc1cc2[nH]c(=O)n(CCCCCC(=O)N3CC=C(c4ccccc4)CC3)c(=O)c2cc1OC
-0.75,i,COc1ccc(-c2cc(C(=O)NC(C(=O)O)C(C)C)c(C)o2)cc1OC (stereo unspecified)
2.38,i,Cc1cc(/C=C2\SC(=S)NC2=O)c(C)n1-c1cccc(O)c1
0.02,i,CC(C)NC(=S)NNc1nc2ccccc2s1
-0.65,i,COC(=O)CSc1nnc(C)n1-c1ccc(C)cc1
-2.04,i,CN(C)c1ccc(N/C=C/C(=O)c2ccccc2)cc1
3.2,i,CCCCn1nc2cc(C(=O)NCc3cc(C(F)(F)F)cc(C(F)(F)F)c3)ccc2c1OCC
-0.15,i,Cn1nc(C(F)(F)F)cc1C(=O)O
0.18,i,COc1cccc(N2CCN(C(=S)Nc3ccc(C)cc3C)CC2)c1
2.26,i,O=C1CN(c2nc(-c3cccnc3)nc3scc(-c4ccccc4)c23)CCN1
-0.69,i,CCC1CCCCN1S(=O)(=O)c1ccc(C(=O)Nc2nnc(C3CC3)o2)cc1 (stereo unspecified)
0.1,i,O=C(N/N=C/c1cccc([N+](=O)[O-])c1)C1CC(=O)N(c2ccc(F)cc2)C1 (stereo unspecified)
-1.93,i,CC(=O)c1ccc(N2CCN(C(=O)c3ccc4nc[nH]c4c3)CC2)cc1
-0.76,i,COc1ccc(Cc2nc(-c3cccs3)no2)cc1
0.8,i,O=C1COc2ccc(C(=O)COC(=O)Cc3ccsc3)cc2N1
0.23,i,Cc1ccc(NC(=O)c2cc(S(=O)(=O)N3CCCC3)cn2C)cc1
2.17,i,O=C(Nc1cccnc1)OC1CCCCC1
1.57,i,Cc1ccc(NC(=O)CN(C)C(=O)CSc2nc(C)cc(C)n2)cc1
0.35,i,COc1cccc(-c2cc(C(=O)N3CCc4ccccc4C3)[nH]n2)c1
1.55,i,O=C(C1CCCO1)N1CCN(C(=S)Nc2cc(F)cc(F)c2)CC1 (stereo unspecified)
0.19,i,CCN(CC)C(=O)CSC1c2ccccc2C(=O)N1c1ccccc1 (stereo unspecified)
-0.05,i,COC(=O)c1sc(SC)c(S(=O)(=O)C(C)C)c1N
-1.21,i,CCCCOc1ccc(C(=O)Nn2c(-c3cccs3)nc3ccccc3c2=O)cc1
1.63,i,COc1ccc(CC(=O)N/N=C(\C)c2cccs2)cc1
-0.52,i,COc1ccc(OC)c(CN2CCN(CCCc3ccccc3)C(CCO)C2)c1 (stereo unspecified)
-1.36,i,c1ccc2c(c1)CCCn1nnnc1-2
-0.09,i,Cc1ccc(NC(=O)CCCCCN2C(=O)[C@@H]3Cc4ccccc4CN3C2=O)cc1
0.51,i,c1ccc(CSc2nccc(-c3ccco3)n2)cc1
-0.83,i,Cc1cc(-c2csc3ncnc(N4CCN(C)CC4)c23)cc(C)c1C
-1.83,i,Cc1csc(NC(=O)CS(=O)(=O)Cc2ccccc2)n1
-1.3,i,COC(=O)c1cnc(Oc2ccc(NC(=O)NC(=O)c3c(F)cccc3Cl)cc2)cc1C(F)(F)F
0.12,i,Cc1cc2ccccc2n1CCNC(=O)C(C)(C)C
-0.97,i,Cc1nc2ccccc2c2c1CC(C(C)(Cl)Br)O2 (stereo unspecified)
0.21,i,Cn1c(C(=O)OCC(=O)NCc2ccc(F)cc2)cc2occc21
-0.76,i,COc1cc(C2NC(=O)NC(C)=C2C(=O)OC(C)C)ccc1OC(=O)c1ccco1 (stereo unspecified)

Continuation:
KCNQ2 block baseline,KCNQ2 block,Molecule
0.78,i,Cc1cccc(-n2cnc(C(=O)Nc3cccnc3)c2)n1
-1.3,i,O=C(C1CCN(S(=O)(=O)N2CCC3(CC2)OCCO3)CC1)N1CCCCC1
-1.43,i,CCOC(=O)c1sc2ncn(C(CC)C(=O)OCC)c(=O)c2c1C (stereo unspecified)
0.08,i,Fc1ccc(NC(=S)Nc2ccccc2N2CCOCC2)cc1Cl
-0.33,i,COCCCn1c(SCC(=O)NCc2ccco2)nc2sc3c(c2c1=O)CCC3
-0.73,i,CCCCNC(=S)N/N=C/c1ccc(C)s1
1.62,i,CSC(=CC(=O)c1ccc(F)cc1)SC
0.14,i,COc1cc(C2NC(=S)NC3=C2C(=O)CCC3)ccc1O (stereo unspecified)
-1.23,i,O=C(CCc1ccccc1)NCCS(=O)(=O)N1CCN(c2ccccc2)CC1
1.14,i,COc1ccc(S(=O)(=O)Nc2ccccc2C(=O)N2CCCC2)cc1OC
-3.56,i,COc1ccc(NC2=C3CCCC=C3N(c3ccc(OC)cc3)C2=O)cc1
2.07,i,CC(=O)c1ccc(NC(=O)CCCN2C(=O)COc3ccc(C)cc32)cc1

Structures from the list above that have a tert-butyl group, in the order listed:
KCNQ2 block baseline,KCNQ2 block,Molecule
-1.15*,-6.25*,Cc1ccc(S(=O)(=O)N2c3cc(C)ccc3OCC2C(C)(C)C)cc1 (stereo unspecified)
0.12,i,Cc1cc2ccccc2n1CCNC(=O)C(C)(C)C

Next part:
KCNQ2 block baseline,KCNQ2 block,Molecule
-1.3,i,Cc1ccnc(SCc2cc(=O)c(OC(=O)c3ccc(Br)o3)co2)n1
1.33,i,CC(=O)Nc1nc(-c2ccccc2)c(-c2ccccc2)o1
0.68,i,COc1cccc(N2CCN(CC(=O)Nc3nc4c(s3)CC(C)CC4)CC2)c1 (stereo unspecified)
0.93,i,CC1=NN(c2ccc(Cl)c(C(=O)O)c2)C(=O)/C1=C/c1ccc(-c2ccccc2[N+](=O)[O-])o1
-1.3,i,COc1cccc(/C=C2\SC(=S)N(CC3CCCO3)C2=O)c1 (stereo unspecified)
-0.74,i,O=C(NCCCN1CCCC1=O)Nc1ccccc1Cl
0.01,i,O=C(COC(=O)c1cccc(Br)c1)NCCNC(=O)COC(=O)c1cccc(Br)c1
0.74,i,Cc1nc2cc(C(=O)N3CCN(C)CC3)ccc2n1C
0.94,i,COc1ccc(CCNCC(=O)Nc2ccc(C)c(S(=O)(=O)N(C)C)c2)cc1
-1.8,i,COc1cc(-c2noc(C)c2C#Cc2ccsc2)cc(OC)c1OC
0.08,i,CCCOc1ccc(C(C)=O)cc1CC(C(=O)OCC)C(=O)OCC
-0.02,i,O=C(COC(=O)c1cc(=O)[nH]c2ccccc12)Nc1nc(-c2ccccc2)cs1
-0.49,i,CCN1CCN(Cc2ccc(NC(=O)c3cc(NC(=O)c4cc(C)on4)cc(OC)c3)cc2C(F)(F)F)CC1
-0.17,i,Cn1c(=O)c2cc(S(=O)(=O)Nc3cc(C(=O)O)cc(C(=O)O)c3)ccc2n(C)c1=O
-0.03,i,Cc1cc(C)cc(Oc2ccc(N)cc2)c1
-1.75,i,Cc1ccc(C)c(SCC(=O)c2ccc[nH]2)c1
-1.5,i,CCOC(=O)C1CCN(S(=O)(=O)c2cc(Cl)c(C)cc2OC)CC1
-0.68,i,COc1ccccc1C(=O)NC1CC(C)(C)NC(C)(C)C1
1.85,i,CCOC(=O)Cc1[nH]nc2c1C(c1ccoc1)C(C#N)=C(N)O2 (stereo unspecified)
-1.16,i,Cc1ccc(SC[C@H](Cc2ccccc2)N2CC[C@@H](C)CCC2=O)cc1
0.64,i,Cc1cc(C(=O)OCC(=O)NC(C)C)c(C)o1
2.17,i,COc1ccccc1C1C(C#N)=C(N)Oc2cc(C)n(CCCn3ccnc3)c(=O)c21 (stereo unspecified)
2.51,i,CC(Sc1ncn[nH]1)C(=O)Nc1ccc(Cl)cn1 (stereo unspecified)
1.59,i,CSc1ccccc1NC(=S)N/N=C/c1cccn1Cc1ccc(F)cc1
-1.48,i,COc1ccc(NC(=O)c2cccs2)cc1NC(=O)c1ccco1
0.7,i,N[C@@H](Cc1ccccc1)C(=O)N1CCC(C(=O)N[C@@H](Cc2c[nH]c3ccccc23)C(=O)O)CC1
-0.44,i,CCOC(=O)N/N=C(\C)c1ccc(-n2cnnn2)cc1
2.86,i,COc1ccc(C)c2sc(N(CCN(C)C)C(=O)c3ccc4ccccc4c3)nc12
-1.22,i,Cc1cs/c(=N\N=C2CCCCC2)n1Cc1ccco1
1.33,i,N/C(Cc1nc(-c2ccc(Cl)cc2)cs1)=N/O
1.88,i,CN(CC(=O)Nc1ccc(Cl)c(C(F)(F)F)c1)C(=O)Cc1ccsc1
0.76,i,CCCCNC(=O)NNC(=O)c1ccco1
0.7,i,CCOC(=O)N1CCN(c2nc3ccccc3nc2C(C#N)S(=O)(=O)c2ccc(C)cc2)CC1 (stereo unspecified)
-1.71,i,CC12CCC(C(=O)NCc3ccccc3Cl)(CC1=O)C2(C)C (stereo unspecified)
-1.62,i,CCOc1ccc(NC(=O)C/C(C)=N/NC(=O)Cc2cccs2)cc1
-0.61,i,COc1cccc(C(=O)CN2CCN(S(=O)(=O)c3ccc(Br)cc3)CC2)c1
-0.04,i,CC(=O)N1c2ccc(S(=O)(=O)N3CCC(C(=O)Nc4cccc(F)c4)CC3)cc2CC1C (stereo unspecified)
0.51,i,COc1ccc(Cn2c(=O)c3cccnc3n(Cc3ccc([N+](=O)[O-])cc3)c2=O)cc1
1.47,i,N#CCNC1CC(=O)N(c2ccc(F)cc2)C1=O (stereo unspecified)
1.01,i,CCOC(=O)CSc1nc(=O)n2cc(C)ccc2n1
1.51,i,COc1ccc(N2CCN(C(=O)c3ccccc3)CC2)c([N+](=O)[O-])c1
1.3,i,O=C(NCc1ccc2c(c1)OCO2)c1cccnc1
2.3*,-6.3*,CN(CCOc1ccccc1)CC(=O)Nc1cccc(Br)c1
1.25,i,CC1=NN(c2nc(C)cc(C)n2)C(=O)C1CCC(C)C (stereo unspecified)
1.35,i,COc1cc2[nH]c(=S)n(C3CC3)c(=O)c2cc1OC
-1.55,i,C=CCn1c(COc2ccccc2)nnc1SCC(=O)C(C)(C)C
-1.12,i,CCCCCC(=O)Nc1ccc2oc(-c3cncc(Br)c3)nc2c1
-0.19,i,Clc1ccc(-c2nnc3sc(Cc4cccs4)nn23)cc1
-0.02,i,Cc1ccc(CN2CCN(Cc3nc4ccccc4nc3C)CC2CCO)cc1 (stereo unspecified)

In the list so far, these have a Cl atom:
KCNQ2 block baseline,KCNQ2 block,Molecule
-0.58,i,CCC1(c2ccc(F)cc2)NC(=O)N(CC(=O)NCc2ccccc2Cl)C1=O (stereo unspecified)
-0.01,i,COc1ccc(NC(=O)CSc2nnc(-c3ccccc3Cl)n2Cc2ccco2)c(OC)c1
-1.3,i,COC(=O)c1cnc(Oc2ccc(NC(=O)NC(=O)c3c(F)cccc3Cl)cc2)cc1C(F)(F)F
-0.97,i,Cc1nc2ccccc2c2c1CC(C(C)(Cl)Br)O2 (stereo unspecified)
0.08,i,Fc1ccc(NC(=S)Nc2ccccc2N2CCOCC2)cc1Cl
0.93,i,CC1=NN(c2ccc(Cl)c(C(=O)O)c2)C(=O)/C1=C/c1ccc(-c2ccccc2[N+](=O)[O-])o1
-0.74,i,O=C(NCCCN1CCCC1=O)Nc1ccccc1Cl
-1.5,i,CCOC(=O)C1CCN(S(=O)(=O)c2cc(Cl)c(C)cc2OC)CC1
2.51,i,CC(Sc1ncn[nH]1)C(=O)Nc1ccc(Cl)cn1 (stereo unspecified)
1.33,i,N/C(Cc1nc(-c2ccc(Cl)cc2)cs1)=N/O
1.88,i,CN(CC(=O)Nc1ccc(Cl)c(C(F)(F)F)c1)C(=O)Cc1ccsc1
-1.71,i,CC12CCC(C(=O)NCc3ccccc3Cl)(CC1=O)C2(C)C (stereo unspecified)
-0.19,i,Clc1ccc(-c2nnc3sc(Cc4cccs4)nn23)cc1
